# KCNQ2 block: KCNQ2 channel blockers in CHO-K1 cells – cell-based, FluxOR thallium flux, B-score, primary screen (AID 2156); 20 min; active compounds read low; only compounds with negative scores are shown here; some inactives read as strong as hits; B-score at 10 µM; 310,000 compounds, 1.1% hits;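 active = fluorescence ratio B-score at most minus 3 library SDs, with starting brightness B-score within 2 library SDs, cut at about -5.5 in these data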
# Target sequence (O88943 whole entry, looked up): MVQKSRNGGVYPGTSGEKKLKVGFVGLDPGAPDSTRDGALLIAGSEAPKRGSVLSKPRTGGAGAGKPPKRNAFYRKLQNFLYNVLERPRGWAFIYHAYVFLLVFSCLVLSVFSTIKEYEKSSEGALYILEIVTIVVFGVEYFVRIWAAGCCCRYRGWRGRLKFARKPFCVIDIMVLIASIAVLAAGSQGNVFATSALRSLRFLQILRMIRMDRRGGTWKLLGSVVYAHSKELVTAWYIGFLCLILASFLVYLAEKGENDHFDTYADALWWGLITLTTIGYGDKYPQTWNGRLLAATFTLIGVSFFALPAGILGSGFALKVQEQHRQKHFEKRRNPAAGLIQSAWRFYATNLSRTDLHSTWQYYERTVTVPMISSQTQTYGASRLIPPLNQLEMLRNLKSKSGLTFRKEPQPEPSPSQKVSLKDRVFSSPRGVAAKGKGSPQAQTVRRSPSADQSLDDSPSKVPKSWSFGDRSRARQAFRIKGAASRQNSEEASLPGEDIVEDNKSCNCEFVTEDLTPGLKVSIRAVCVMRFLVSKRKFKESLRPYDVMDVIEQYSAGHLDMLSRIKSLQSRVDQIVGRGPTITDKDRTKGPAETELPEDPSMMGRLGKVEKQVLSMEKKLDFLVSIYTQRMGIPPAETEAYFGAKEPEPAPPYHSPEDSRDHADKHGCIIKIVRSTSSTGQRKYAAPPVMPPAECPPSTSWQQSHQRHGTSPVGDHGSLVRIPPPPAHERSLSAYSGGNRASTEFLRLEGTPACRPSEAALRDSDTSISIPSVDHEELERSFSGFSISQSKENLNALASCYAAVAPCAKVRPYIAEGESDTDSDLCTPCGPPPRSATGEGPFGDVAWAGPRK
# KCNQ2 block baseline: second read-out of KCNQ2 block, no call of its own (marks repeat the call); B-score; measured here: initial fluorescence intensity artifact check;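 brightness before thallium and not channel activity; 0 = typical well and far values either way flag optical interference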
# An asterisk follows results filed as active; i = inactive. The list is partial (hit frequency here may not be typical).
Structure,KCNQ2 block,KCNQ2 block baseline
Cc1ccc(N(C)S(=O)(=O)c2cccc(C(=O)Oc3ccc4c(C)cc(=O)oc4c3)c2)cc1,i,1.28
CCc1ccc(Sc2cc(C(=O)NCCN3CCOCC3)c3ccccc3n2)cc1,-5.65*,1.51*
CC(C)=C(NC(=O)c1ccccc1)C(=O)NC(Cc1ccccc1)C(=O)O (stereo unspecified),i,-2.1
Cc1cc(Nc2cc(F)ccc2C)n2nc(C)nc2n1,i,0.33
O=C(NCc1ccccc1)c1nc(S(=O)(=O)Cc2ccccc2)ncc1Cl,i,-0.03
COc1ccc(CCNC(=O)CN2C(=O)CCSc3ccccc32)c(OC)c1,i,-2.41
Cc1ccccc1C(=O)OCn1nnc2ccccc2c1=O,i,2.03
Cn1c(=O)c2c(ncn2CC(=O)N2CCN(c3ccc([N+](=O)[O-])cc3)CC2)n(C)c1=O,i,-0.31
CC(=O)C(Sc1nnnn1-c1ccccc1)C(C)=O,i,0.14
CCOc1ccccc1N(CC(=O)Nc1ccc(OC)c(OC)c1)S(=O)(=O)c1ccccc1,i,1.32
N/C(=N\OC(=O)C1CCCCC1)c1ccccn1,i,1.67
CCOC(=O)C1CCN(C(=O)C2COc3ccccc3O2)CC1 (stereo unspecified),i,1.9
CCN1c2ccccc2NC2C1C(C(C)=O)C(=O)N2c1ccc(Cl)cc1 (stereo unspecified),i,0.53
COc1ccc2[nH]c(=O)c(CN(CC3CCCO3)C(=O)Nc3ccccc3OC)cc2c1 (stereo unspecified),i,0.79
O=C1c2ccccc2CCC12N=NCC2c1ccccc1 (stereo unspecified),i,0.02
O=C(COc1ccccc1)Nc1ccc2c(c1)C(=O)N(CC1CCCO1)C2=O (stereo unspecified),i,0.53
Cc1cccc(C(=O)NNC(=S)NC(=O)c2cccs2)c1,i,-0.26
Cc1cc(N)ccc1-n1c(C)ccc1C,i,-0.12
O=c1cnnc(Nc2cccc(F)c2)[nH]1,i,0.87
Cc1[nH]c2ccccc2c1C(=O)CN1C(=O)C(=O)N(C2CCCC2)C1=O,i,0.64
CC(C)N1C(=S)SC(C)(C)C1NO (stereo unspecified),i,-0.01
COc1ccccc1N1CCN(C2CCCC(C)C2)CC1 (stereo unspecified),i,0.28
Cc1ccc(SC/C(O)=C(\C#N)c2nc3ccccc3n2C)cc1,i,-0.06
COc1ccccc1/C=C1\SC(=S)N(CCC(=O)NNC(=O)c2ccccc2O)C1=O,i,0.07
COc1cccc(NC2=CC(=O)CC(C)(C)C2)c1,i,-0.24
Cc1ccc(NC(=O)CSCC(=O)Nc2sccc2C#N)cc1,i,0.61
CCCOC(=O)C1[C@H]2C(=O)N(Cc3ccco3)C[C@]23C=C[C@H]1O3 (stereo partly specified),i,0.01
O=Cc1c(N2CCN(CCO)CC2)nc2ccccn2c1=O,i,8.06
Cc1ccc(C(=O)NN2C(=O)c3ccc(S(=O)(=O)c4ccc(C(=O)O)cc4)cc3C2=O)cc1,i,-0.76
Cc1cc(OCCn2ccnc2)cc(C)c1Cl,i,1.65
Cc1nnsc1C(=O)NNc1ccc(C(C)(C)C)cc1,i,2.47
O=C(NCc1ccccc1)OCCN1CCN(Cc2ccccc2)CCC1=O,i,2.1
CCOc1ncccc1C(=O)OCC(=O)c1cc(OC)ccc1OC,i,-1.87
Fc1ccc(CSc2nc3ccccc3[nH]2)c2ccccc12,i,0.15
CN(C)c1ccc(C(=O)Nc2nnc(-c3ccc(Cl)cc3)o2)cc1,i,-0.75
Cc1c(Br)c([N+](=O)[O-])nn1CC(=O)NCc1cccs1,i,0.02

# Full records as entered above. Values in the order: KCNQ2 block	KCNQ2 block baseline
# `Cc1nnsc1C(=O)NNc1ccc(C(C)(C)C)cc1` is listed with i	2.47
# `COc1cccc(NC2=CC(=O)CC(C)(C)C2)c1` is listed with i	-0.24
# `Cc1cc(OCCn2ccnc2)cc(C)c1Cl` is listed with i	1.65
# `Fc1ccc(CSc2nc3ccccc3[nH]2)c2ccccc12` is listed with i	0.15
# `CCOc1ncccc1C(=O)OCC(=O)c1cc(OC)ccc1OC` is listed with i	-1.87

# Other results follow.
Structure,KCNQ2 block,KCNQ2 block baseline
COc1cc(OC)cc(C(=O)Nc2ccc(-c3nc4ccccc4o3)c(O)c2)c1,i,-0.27
COc1cc(NC(=O)C2CCCN2S(=O)(=O)c2cccc3cccnc23)cc(OC)c1OC (stereo unspecified),i,-1.64
CCOc1ccc(CC(=O)Nc2ccc(NC(=O)c3ccco3)cc2)cc1OCC,i,-0.76
Cc1nnc(SCc2ccccc2)nc1-c1ccccc1,i,0.04
C1CCC(n2nnnc2CN2CCCC2)CC1,i,1
O=C(COC(=O)CNS(=O)(=O)c1ccc(F)c(F)c1F)NC1CCCC1,i,-2.05
O=C(Cn1cnc2ccccc2c1=O)c1c[nH]c2ccccc12,i,0.43
Cc1ccc(Cn2c(=O)n(CCC(=O)NCc3ccc4c(c3)OCO4)c(=O)c3ccccc32)cc1,i,-1.72
COc1ccc(OC)c(-n2c(N)c(C(=O)NCC3CCCO3)c3nc4ccccc4nc32)c1 (stereo unspecified),i,0.41
COc1ccc(NC(=O)CN(C)S(=O)(=O)c2ccc(C)cc2)c([N+](=O)[O-])c1,i,-1.93
CCN(CC)S(=O)(=O)c1ccc(N(C)Cc2cccnc2)nc1,i,-0.41
COc1ccccc1CN1CCN(Cc2nc(Cc3ccccc3)no2)CC1,i,0.16
Cc1oc(/N=C/c2ccc(Cl)cc2Cl)c(C#N)c1C,i,0.17
Cc1noc(/C=C/N(C)C)c1S(=O)(=O)N1CCCC(C(=O)NC2CCCCC2C)C1 (stereo unspecified),i,0.42
NS(=O)(=O)c1ccc(NC(=S)NNC(=O)c2cccs2)cc1,i,1.88
COCCNC(=O)Cn1cc(S(=O)(=O)N2CCN(c3ccccc3F)CC2)c2ccccc2c1=O,i,0.67
Cc1sc2ncnc(OCC(=O)NCC3CCCO3)c2c1C (stereo unspecified),i,-0.45
CC1CCC(NC(=O)C(Cc2ccccc2)n2cccc2)CC1 (stereo unspecified),-5.82*,1.23*
CC(C)(O)[C@H]1Cc2cc3ccc(=O)oc3cc2O1,i,0.08
O=C(NC(NC(=S)Nc1c(Cl)cccc1Cl)C(Cl)(Cl)Cl)OCc1ccccc1 (stereo unspecified),i,1.68
Cc1ccccc1NC(=O)C(NS(=O)(=O)c1ccc2c(c1)c(=O)n(C)c(=O)n2C)c1ccccc1 (stereo unspecified),i,3.23
CCC(=O)N1N=C(c2c(O)n(C)c(=O)n(C)c2=O)CC1c1ccccc1 (stereo unspecified),i,-0.59
O=C(Cn1cc([N+](=O)[O-])nc1[N+](=O)[O-])N1CCN(c2ccccc2)CC1,i,-1.91
Cc1nn(-c2ccccc2)c(C)c1NC(=O)COC(=O)c1ccc(Cl)c(S(N)(=O)=O)c1,i,-1.98
CCCCn1ccnc1C(=O)c1cccc(S(=O)(=O)N2c3ccccc3CC2C)c1 (stereo unspecified),i,-1.13
CCOc1ccccc1NC1c2ccccc2C(=O)N1Cc1ccco1 (stereo unspecified),i,-0.53
N#Cc1ccc(/C=N/NC(=O)c2cc(-c3cccs3)nc3ccccc23)cc1,i,0.65
CC(=O)N1CCN(c2cc(N3CCc4ccccc4C3)c(F)cc2[N+](=O)[O-])CC1,-5.61*,-1.39*
COc1nc(NCCc2ccc(OC)c(OC)c2)nc(Nc2ccccc2)n1,i,1.14
Cc1ccc(OCC(=O)NC(=S)Nc2ccc3c4c(cccc24)CC3)cc1,i,0.61
COC(=O)N/N=C/c1cn(Cc2ccccc2F)c2ccccc12,i,1.69
CCOC(=O)c1c(C)sc2c1N(C(C)=O)c1cc(Cl)ccc1S2,i,-0.77
O=c1cc(N2CCOCC2)[nH]c(=O)n1C1CCCCC1,i,0.83
Cc1oc(-c2cc(F)cc(F)c2)nc1CN1CCSCC1,i,-0.37
O=C1N/C(=N/O)S/C1=C/c1cccnc1,i,1.42
O=C(O)Cc1ccc(NC(=S)Nc2ccc(Br)cc2Cl)cc1,i,0.63
COCCn1cnc2c1c(=O)n(Cc1c(F)cccc1Cl)c(=O)n2Cc1ccccc1,i,-0.47
O=C(CNC(=O)c1ccc2c(c1)OCO2)Nc1ncccc1O,i,1.36
O=C(NCCc1c[nH]c2ccccc12)C(F)(F)C(F)F,i,0.36
Cc1nc2ccc(F)cc2cc1C(=O)Nc1ccc(Cl)c(Cl)c1,i,1.77
CCCN(CC(=O)Nc1cccc(Br)c1)CC(=O)Nc1ccc(F)c(F)c1F,i,-0.96
Cc1ccc(CNC(=O)c2cc(-c3cc(C)cc(C)c3O)n[nH]2)cc1,i,3.03
CS(=O)(=O)NCc1nnc(SCc2c(F)cccc2Cl)o1,i,-1.14
O=C(Nc1ccc(Cl)c(Cl)c1)Nc1cc(C(=O)N2CCOCC2)ccc1N1CCCCC1,i,0.05
COCCCn1c(=O)c2sccc2n(Cc2cc(C(=O)OC)ccc2OC)c1=O,i,0.2
Cc1ccc2nc(NCCCN3CCOCC3)c(C=NCCCN3CCOCC3)c(=O)n2c1,i,1.61
COC(=O)c1[nH]c2cccc(OC)c2c1NC(=O)CN(C)CC1OCCO1,i,-1.07
O=C(CSC1=NS(=O)(=O)c2ccccc2N1)N1CCCCC1,i,1.65

# Individual results from the results shown.
# O=C(NCCc1c[nH]c2ccccc12)C(F)(F)C(F)F – KCNQ2 block baseline: 0.36
# COC(=O)c1[nH]c2cccc(OC)c2c1NC(=O)CN(C)CC1OCCO1 – KCNQ2 block baseline: -1.07
# Cc1ccc2nc(NCCCN3CCOCC3)c(C=NCCCN3CCOCC3)c(=O)n2c1 – KCNQ2 block baseline: 1.61
# COCCCn1c(=O)c2sccc2n(Cc2cc(C(=O)OC)ccc2OC)c1=O – KCNQ2 block baseline: 0.2
# Cc1nc2ccc(F)cc2cc1C(=O)Nc1ccc(Cl)c(Cl)c1 – KCNQ2 block baseline: 1.77
# O=C(CSC1=NS(=O)(=O)c2ccccc2N1)N1CCCCC1 – KCNQ2 block baseline: 1.65

# Continued:
Structure,KCNQ2 block,KCNQ2 block baseline
O=C(c1[nH]ncc1-c1cccc(Br)c1)C1CO1 (stereo unspecified),i,-0.01
Cc1ccc(C)c(S(=O)(=O)N2CCCCC2CCNC(=O)C(=O)NCc2ccco2)c1 (stereo unspecified),i,2.49
Cc1onc(-c2c(Cl)cccc2Cl)c1C(=O)NCc1cccs1,i,0.9
Cc1cc(C)nc(NC(=S)Nc2cccc(F)c2)c1,i,0.99
O=C(Oc1cccc(/C=N/Nc2nc(Nc3ccccc3)nc(N3CCOCC3)n2)c1)c1ccco1,i,0.62
CCc1nnc(NC(=O)CSc2nnc(CNC(=O)c3ccccc3F)n2C)s1,i,2.39
O=C(NNC(=O)c1ccccc1OCc1ccccc1)c1ccccc1O,i,-0.63
CC#CCCCC(=O)Nc1ccc(C(=O)O)cc1,i,0.22
Cc1ccc(NC(=O)C2CCCN2C(=O)OCc2ccccc2)c(C)c1 (stereo unspecified),i,1.85
COC(=O)CCC(=O)OC1(C)C(=O)C2=CN(Cc3ccccc3)C(c3ccc(OC)cc3)=CC2=C(Br)C1=O (stereo unspecified),i,-1.81
Cc1ccc(COC(=O)c2cc(S(=O)(=O)N3CCCCC3)ccc2N2CCOCC2)cc1,i,-0.23
CCN(CC)c1ccc(NC(=O)c2cnccn2)cc1S(=O)(=O)Nc1ccc(OC)cc1,i,0.66
COc1cc(C=O)ccc1Oc1nnnn1-c1ccccc1,i,1.4
CCC(C)(C(=O)NC1CCCC1)N(C(=O)CNC(C)=O)c1ccccc1 (stereo unspecified),i,-0.8
CCCn1c(/C=C/c2cc[n+](C)cc2)nc2ccccc21,i,2.96
COc1ccc(C(=O)NC(=S)Nc2ccc(N3CCCC3)cc2)cc1,i,0.28
CN1CCN(CCC(=O)Nc2ccccc2Cl)CC1,i,-0.28
CC(=O)N(C(C)=O)S(=O)(=O)c1ccc(N=NN2CCCCC2)cc1,i,2.53
COc1ccc(NC(=O)CN(C)CC(=O)Nc2cccc(S(=O)(=O)N(C)c3ccccc3)c2)cc1,i,1.05
COc1cc(CCC(=O)N2CCN(c3ccccc3)CC2)cc(OC)c1OC,i,1.3
COc1ccccc1N=Nc1c(C)[nH]n(-c2ccccc2)c1=O,i,-1.17
O=C(Nc1ccc(Cl)c(C(=O)N2CCOCC2)c1)c1ccccc1,i,-0.61
Cc1ccc2[nH]c3nc(SCCN4CCOCC4)nnc3c2c1,i,-2.33
COc1ccc(/C=N/NC(=O)c2ccc(COc3cccc4cccnc34)cc2)cc1O,i,-1.27
CC(C)Oc1ccc(C(=O)N/N=C/c2ccc(-c3ccc(S(=O)(=O)Nc4ncccn4)cc3)o2)cc1,i,-1.02
CCC[N+]1(CC#CC2(O)CCCCC2)CCOCC1,i,-1.35
COc1ccc(C=O)cc1Cn1ccnc1,i,1
Cc1ccc(C(CCN(Cc2ccccc2)C(=O)c2ccco2)c2ccco2)cc1 (stereo unspecified),-8.01*,-0.65*
NC1=NC[C@H](c2ccccc2)N1CCCCC1CCCCC1,i,0.31
CCC(C)NC(=O)NC(=O)N(C1CCCCC1)S(C)(=O)=O (stereo unspecified),i,0.43
Cn1nccc1C(=O)N1CCN(C23CC4CC(CC(C4)C2)C3)CC1,i,-2.45
CCCn1nc2cc(C(=O)NC3CCc4ccccc43)ccc2c1OCC (stereo unspecified),i,-1.85
O=C(Nc1nc(-c2ccc(Cl)s2)cs1)c1cccs1,i,-1.37
O=C(Nc1ccccc1-c1ccccc1)NC1CC2CCCC(C1)N2Cc1ccc(F)cc1 (stereo unspecified),i,0.02
CCOc1ccc(NC(=O)c2ccc(CNc3c(N4CCCC4)c(=O)c3=O)cc2)cc1,i,-0.34
O=C(CN(C(=O)C1CSC(=O)C1)c1cccc(F)c1)NC1CCCC1 (stereo unspecified),i,0.02

# High-throughput results: PubChem BioAssay, Johns Hopkins Ion Channel Center
